High-throughput results (PubChem BioAssay)
Tgondii IFNg: blocks Toxoplasma gondii growth in the presence of IFN-gamma; Toxoplasma gondii growth in IFN-gamma-treated host cells; active compounds read low; reference of the scale not given here; activity change, negative = inhibition, %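 (about 20 µM by stock and volumes)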; 69,000 compounds, 3.8% hits;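 active = below -70%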;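 also: host cells are HeLa cells infected with Toxoplasma gondii; parasite growth read as luciferase light; one replicate is shown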
Numbers without * were called inactive; i = inactive; & = joins results of further samples. Not all compounds are listed, so the mix of outcomes need not match the whole.

SMILES | Tgondii IFNg
Cc1nc(CCNC(=O)C2CC(=O)N(CC(C)C)C2)nc2c1CCC2 (stereo not drawn) | -0.9
CCN(CC)C(=O)c1cc(=O)n(CC(=O)Nc2ccc(C)c(C)c2)c2ccccc12 | 12.2
O=C(O)c1cccc2c1C(=O)N(CC1CCCO1)C2 (stereo not drawn) | 2.9
OC1CCN(c2ccnc(N3CCC(O)(c4ccc(Cl)cc4)CC3)n2)C1 (stereo not drawn) | -4.6
COc1ccc2c3c(n(C)c2c1)[C@H](CO)NCC31CCN(C(=O)Nc2ccc3c(c2)OCO3)CC1 | -27.6
O=C(Cc1c[nH]c2ccccc12)NCC1CCN(c2cc(-c3ccncc3)[nH]n2)CC1 | 159.1
O=C(c1ccccc1)c1nn(-c2ccc(C(F)(F)F)cc2)ccc1=O | 8.8
CCN(CC)C(=O)CN1C(=O)N2CCCN=C2c2ccc(Cl)cc21 | 6.9
O=C(c1cnccn1)N1CC(=O)N2[C@H](CO)[C@H](c3ccc(-c4cccc(F)c4)cc3)[C@@H]2C1 | -26.3
CCOc1ccc(NC(=S)Nc2cc(-c3cccs3)[nH]n2)cc1 | 89.4
CO[C@H]1CN(C)C(=O)c2cc(NC(=O)CC(F)(F)F)ccc2OC[C@@H](C)N(CC2CC2)C[C@H]1C | 67.2
O=C1CC(c2cccs2)Cc2nc(N3CCN(CCO)CC3)ncc21 (stereo not drawn) | 262.7
Cc1ccccc1OC(=O)c1cccnc1 | 3.7
O=C(Cc1ccccn1)N1CC[C@H](O)[C@@H]1Cc1ccncc1 | -49.6
CCOC(=O)c1cc(C2CC2)nc2c1c(=O)n(Cc1nc(-c3ccccc3C)oc1C)c(=O)n2C | 8.4

Brought forward from above: three entries, then new ones.
SMILES | Tgondii IFNg
Cc1ccccc1OC(=O)c1cccnc1 | 3.7
O=C(Cc1ccccn1)N1CC[C@H](O)[C@@H]1Cc1ccncc1 | -49.6
CCOC(=O)c1cc(C2CC2)nc2c1c(=O)n(Cc1nc(-c3ccccc3C)oc1C)c(=O)n2C | 8.4
CC(C)(CO)Cc1cc(C(C)(C)C)c(O)c(C(C)(C)C)c1 | 19.8&14.1
CSc1ccc(NC(=O)N2CCC(c3nc(C(=O)N4CCCC4)c(C)o3)CC2)cc1 | -84.4*
S=c1nc[nH]c2[nH]ncc12 | -8.1
Cc1nc(CN2CC[C@@H]3[C@H]2CCN3S(C)(=O)=O)cs1 | -16.2
C=CCC(C)(NCc1ccccc1)c1ccco1 (stereo not drawn) | 17.7
O=C(NC1CCCC1)N1CCCCN2[C@@H](CO)[C@H](c3ccc(-c4cccnc4)cc3)[C@@H]2C1 | -48.1
Cc1ccc2c(c1)NC1(CCN(C(=O)c3ccc(Cl)cc3)CC1)c1cccn1-2 | 4.7
COCc1nc(NCc2cnc(C)cn2)c2cnn(C)c2n1 | 4.2
O=C1CCC[C@@H]2[C@@H]3CCC[N+]4([O-])CCC[C@H](CN12)[C@@H]34 (stereo partly drawn) | 5.3
C[C@]12C=CC(=O)C=C1CCC1C2[C@@H](O)C[C@@]2(C)C1CC[C@]2(O)C(=O)COP(=O)(O)O (stereo partly drawn) | 4.9&6.6
CCOC(=O)c1nc(NCCc2ccc(OCC)cc2)c2ccccc2n1 | -62.4
CCOc1ccc(-c2nccn2CCN(C)C)cc1CO | 2.0
COc1ccc(NC(=O)c2c(O)c3cccnc3n(-c3cccc(F)c3)c2=O)cc1Cl | 162.3
OC[C@@H]1[C@H](c2ccc(-c3ccc(F)cc3)cc2)[C@@H](CNC2CCCC2)N1CCC(F)(F)F | -45.9
Cc1noc(C)c1S(=O)(=O)Nc1ccc2c(c1)C(=O)N([C@@H](C)CO)C[C@@H](C)[C@@H](CN(C)C(=O)NC1CCCCC1)O2 | -8.1

Single values from above:
In Tgondii IFNg, `OC[C@@H]1[C@H](c2ccc(-c3ccc(F)cc3)cc2)[C@@H](CNC2CCCC2)N1CCC(F)(F)F` shows -45.9
In Tgondii IFNg, `Cc1ccc2c(c1)NC1(CCN(C(=O)c3ccc(Cl)cc3)CC1)c1cccn1-2` shows 4.7

Other results:
SMILES | Tgondii IFNg
COC(=O)C[C@@H]1CC[C@H]2[C@H](COc3ccc(NC(=O)Nc4cccc(C#N)c4)cc3C(=O)N2C)O1 | -15.2
O=S(=O)(c1ccc(Cl)cc1)N1CCN=C1COc1cccnc1 | 83.9
N#C[C@H]1[C@@H](c2ccccc2-c2ccc(F)cc2)[C@@H](CO)N1C(=O)Cc1cccnc1 | 8.6
Cn1cc(CN2CCCC(CO)(Cc3cccc(Cl)c3)C2)cn1 (stereo not drawn) | 4.4
CN1C(=O)c2cc(NC(=O)c3ccc(F)c(F)c3)ccc2OC[C@H]2O[C@@H](CC(=O)Nc3ccc4c(c3)COC4)CC[C@@H]21 | -1.3
O=C(O)[C@@H]1[C@@H](CO)[C@@H]2Cn3c(cccc3=O)[C@@H]2N1C(=O)NC1CCCC1 | 1.0
CC(=O)Nc1ccccc1NC(=O)CN1C[C@]2(C)C[C@H]1CC(C)(C)C2 | 0.8
CC(=O)OC12CC3CC(C1)CC(C(=O)NCC1CCCN(C)C1)(C3)C2 (stereo not drawn) | -49.9
Cc1cnc(N2CCC3(CC2)CC(N(C)Cc2ccncc2)CO3)nc1 (stereo not drawn) | 4.1
CC(C)c1ccc(CN2CCCC(O)(CNCc3ccc[nH]c3=O)C2=O)cc1 (stereo not drawn) | 6.3
CC(C)c1ncc(C(=O)N2CCC3(CCCN(C)C3=O)C2)c(=O)[nH]1 (stereo not drawn) | 4.7
CN1C(=O)c2cc(NC(=O)c3ccc(C#N)cc3)ccc2OC[C@H]2O[C@@H](CC(=O)NC3Cc4ccccc4C3)CC[C@@H]21 | -36.6
COc1ccccc1CN1C[C@@H]2N[C@H](C1)C2c1ccc(-c2ccncc2)cc1 (stereo partly drawn) | -6.0&-34.5
CNCC(O)COc1ccc(OC)cc1 (stereo not drawn) | 44.4
C[C@@H]1CCCCO[C@@H](CN(C)CC2CC2)[C@H](C)CN([C@H](C)CO)C(=O)c2cc(NC(=O)c3ccccc3)ccc2O1 | 318.2
NS(=O)(=O)c1ccccc1NC(=O)c1c(O)c2ccccc2[nH]c1=O | 374.2
C[C@@H]1CC=CC[C@@H](c2cccc(Cl)c2)NC(=O)[C@H](Cc2ccccc2)N(C)C(=O)c2ccccc2O1 (mixture of isomers) | -42.6
COc1cccc(CN(C)C(C)c2ccncc2)c1O (stereo not drawn) | 7.9
C[C@@H]1CN([C@H](C)CO)C(=O)c2cc(C#Cc3ccccc3)cnc2O[C@@H]1CN(C)C(=O)c1ccccc1 | 17.0
C[C@@H]1CN([C@@H](C)CO)C(=O)c2cc(NS(=O)(=O)c3ccc(Cl)cc3)ccc2O[C@@H](C)CCCCO[C@H]1CN(C)Cc1ccncc1 | -11.6
CC(C(=O)NCc1cc(-c2ccco2)on1)n1cnc2ccccc21 (stereo not drawn) | 18.6
O=C(c1cnnn1-c1ccccc1)N1CCCC(OCc2ccccn2)C1 (stereo not drawn) | -20.2
O=C(c1cc(F)cc(F)c1)N1CCC(n2cnc3cccnc32)CC1 | 1.5
COc1ncc(-c2c(-c3ccccc3)ncn2CCN2CCCCC2)cn1 | -19.7
CO[C@H]1CN(C)C(=O)c2ccc(NC(=O)Nc3c(C)noc3C)cc2OC[C@H](C)N(CCC(F)(F)F)C[C@H]1C | 48.7
COc1ccc(-c2cc(C(=O)Nc3ccc4nc[nH]c(=O)c4c3)nn2C)cc1 | 21.3
COC(=O)c1c(S(=O)(=O)N2CCOCC2)c(C)n(C)c1C | 27.9
N#C/C(=C\c1ccc(O)c(O)c1)C(=O)OCCc1cccs1 | 8.7
CCOc1cccc(C2c3[nH]c4ccccc4c3CCN2C(=O)c2ccccc2OC)c1 (stereo not drawn) | -105.1*
O=C(Nc1cccnc1)N1CCC(Cc2cccc(Oc3ccc(C(F)(F)F)cn3)c2)CC1 | -73.6*
CCOC(=O)N1CCN(c2cccc3cc(C(=O)OC)[nH]c23)CC1 | i
CCCCOc1ccc(C(=O)CCN2CCCCC2)cc1 | -0.5&11.0
Nc1nc(-c2ccc(Cl)cc2)cs1 | 231.7
CCN1CCO[C@@H]2CN(C(=O)c3ccc(OC)c(Cl)c3)C[C@@H]2C1 | -35.6
O=C(c1ccccc1F)N1C[C@@H]2CN(Cc3ccco3)CCO[C@@H]2C1 | 1.7
COc1cccc(S(=O)(=O)N2C[C@@H](O)COC[C@@H]3O[C@H](CC(=O)N4CCN(c5ccccc5)CC4)CC[C@H]32)c1 | -26.4
CC(=O)N1CC2(CCN(C(=O)c3ccc4ncccc4c3)CC2)CC1C(=O)O (stereo not drawn) | 3.0
CN(C)Cc1cc(=O)n2c(n1)CN(S(=O)(=O)C1CC1)CCC2 | -7.0
CCCNC(=O)Nc1ccc2c(c1)OC[C@@H](C)N(S(C)(=O)=O)C[C@@H](C)[C@H](OC)CN(C)C2=O | 103.9
COc1ccc(-c2cc(=O)c3c(O)cc(OC)c(OC)c3o2)c(OC)c1 | -27.9
COc1cccc(NC(=O)C2CN(C(=O)c3cnc(C)nc3C)C2)c1 | -9.7
O=C(CN1CCCC1c1nc(-c2ccncc2)n[nH]1)N1CCc2ccccc21 (stereo not drawn) | -2.6
COc1ccccc1CNC(=O)CN1C(=O)CCc2cc(Br)ccc21 | 62.7
CO[C@@H]1CCN(C(=O)c2ccoc2)[C@H]2CN(Cc3ccncc3)C[C@@H]12 | 40.2
CN(Cc1cccc2cnccc12)C(=O)c1ccccc1C1CCNC1 (stereo not drawn) | -2.4
c1csc(CN2CCOC3(CCN(Cc4ccoc4)CC3)C2)n1 | -37.3
COc1ccccc1C(=O)N1CCN(Cc2cnc(-c3ccco3)nc2)CC1 | 0.0
CN(C)CC1(O)CCN(C(=O)Cc2cc3c(cc2Cl)OCCO3)C1 (stereo not drawn) | 3.0
CSCC(CSC)OC(=O)NC(=O)c1sc(C#N)c(C)c1C | 89.8
CC(=O)c1cnc2nc(-c3ccncc3)nn2c1C | 13.0
CCc1nc(OCC(=O)Nc2cccc(C)c2)c2ccccc2n1 | -13.5
CN(C)CC1CN(S(=O)(=O)C2CC2)Cc2nccn2C1 (stereo not drawn) | -37.7
CCc1ncnc2c1CCN(C(=O)NCc1cccc(F)c1)CC2 | 21.5
Cc1cc(C)n(-c2cccc(C(=O)N(C)Cc3nc(C4CC4)no3)c2)n1 | 4.3
COc1ccc(S(=O)(=O)N2CCC3(CC2)Nc2cc(F)ccc2-n2cccc23)cc1 | 7.3
COCC(=O)N1CC2(CCN(C(=O)c3cccnc3)CC2)c2c([nH]c3cc(OC)ccc23)[C@@H]1CO | 104.5
Cc1ccc(S(=O)(=O)N(C)C[C@@H]2Oc3c(NS(C)(=O)=O)cccc3C(=O)N([C@@H](C)CO)C[C@H]2C)cc1 | -14.8
COc1ccc(-c2nnc(-c3nc(NCc4ccc(C)o4)c4ccccc4n3)o2)cc1 | 231.0
COc1c(Cl)cc(Br)c(OC)c1C(=O)NC(=O)Nc1nc(C)cc(C)n1 | -48.0
Cc1oc(C2CCN(S(=O)(=O)c3ccc(Cl)cc3)CC2)nc1C(=O)N(C)C | 17.5

The list goes on.
SMILES | Tgondii IFNg
COCCNC(=O)[C@@H]1[C@@H](CO)[C@@H]2Cn3c(cccc3=O)[C@H]1N2S(=O)(=O)c1ccccc1C | 7.9
O=C(c1ccccc1)N1CCn2cnc(COc3cccnc3)c2C1 | -6.2
O=C([C@@H]1CCS(=O)(=O)[C@H]2CN(Cc3ccccc3)C[C@@H]12)N1CCOCC1 | 2.8
C[C@H](NC(=O)C[C@@H]1CC[C@H]2[C@@H](COc3ccc(NS(=O)(=O)c4ccc(Cl)cc4)cc3C(=O)N2C)O1)c1ccccc1 | -21.5
COCCNC(=O)[C@@H]1CC2C(CCN2c2cc(OC)ncn2)O1 (stereo partly drawn) | 2.8
O=C(c1[nH]cnc1-c1ccccc1)N1CCCC(Nc2ccc(F)cc2)C1 (stereo not drawn) | 147.8
CN(C)C(=O)CN1CCC2(CC1)CN(c1cncnc1)C(=O)CO2 | 90.3
CC(Cn1cccn1)c1n[nH]c(C2CC2)n1 (stereo not drawn) | -1.7
Cc1noc(-c2ccc(Cl)cc2)c1C(=O)Sc1cccc(Cl)c1Cl | -4.7
CC(C)C(=O)c1ccc(-n2ncc3cccnc32)s1 | 186.2
N=C1OC2(CCN(Cc3ccccc3)CC2)NC12CCN(Cc1ccccc1)CC2 | -9.6
Cc1ccc(-c2csc(-c3cccn3CC(=O)NCCCN3CCCC(C)C3)n2)cc1 (stereo not drawn) | -33.0
OCc1ccc(-c2nccn2CCCn2ccnc2)o1 | -54.8
CO[C@@H]1CN(C)C(=O)c2ccc(NS(C)(=O)=O)cc2OC[C@@H](C)N(CC2CC2)C[C@@H]1C | -56.4
CCc1cn[nH]c1C1CCCN(C(=O)CCc2nc3ccc(F)cc3[nH]2)C1 (stereo not drawn) | -8.9

Brought forward from above: 3 compounds; new compounds follow.
SMILES | Tgondii IFNg
OCc1ccc(-c2nccn2CCCn2ccnc2)o1 | -54.8
CO[C@@H]1CN(C)C(=O)c2ccc(NS(C)(=O)=O)cc2OC[C@@H](C)N(CC2CC2)C[C@@H]1C | -56.4
CCc1cn[nH]c1C1CCCN(C(=O)CCc2nc3ccc(F)cc3[nH]2)C1 (stereo not drawn) | -8.9
O=C(CC1CC1)NCc1cnc2n1CCNCC2 | -8.2
Cc1oc(-c2ccc(NC(=O)c3cccc(C#N)c3)cc2)nc1Cn1cccn1 | 21.0
CC1(C)Cc2c(sc3ncnc(N)c23)CO1 | 7.3
Cc1cc(C(=O)N2CCC3(CC2)CC(OCC2CC2)CO3)sc1C (stereo not drawn) | 1.7
O=S(=O)(c1cccc(F)c1)N1CCn2nnc(COCC3CC3)c2C1 | -39.7
CCOCC(=O)NC1CCc2c(ccc(=O)n2CCn2cccn2)C1 (stereo not drawn) | 6.3
COc1ccccc1CNC(=O)C[C@H]1C=C[C@H](NC(=O)CC2CC2)[C@H](CO)O1 | 84.9
COC(=O)Cc1cnc(NC(=O)CN2CCc3c([nH]c4ccccc34)C2)s1 | -2.6
CC(=O)NCCC1CN(Cc2nc3c(s2)CCCC3)CCO1 (stereo not drawn) | 3.4

Filtered by structure: the entries above with bromine (two)
SMILES | Tgondii IFNg
COc1ccccc1CNC(=O)CN1C(=O)CCc2cc(Br)ccc21 | 62.7
COc1c(Cl)cc(Br)c(OC)c1C(=O)NC(=O)Nc1nc(C)cc(C)n1 | -48.0
